HIV TAR-Tat: HIV-1 TAR-Tat binding disruption | HIV-1 TAR RNA, Tat peptide displacement FRET; active compounds read high | z-score (test concentration not listed) | 100,000 compounds, 0.6% hits;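 note: score is relative to mean and SD of negative controls; some compounds called inactive have numbers as strong as hits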
CDC25B-CDK2 inh: human CDC25B-CDK2/CyclinA binding inhibition. P30305+P24941. HTRF CDC25B-CDK2/CyclinA binding, anti-His/anti-Flag; active compounds read high. z-score (test concentration not listed). 94,000 compounds, 0.72% hits. AID 1259370;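 note: score is relative to mean and SD of negative controls; strong numbers were not always called active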
An asterisk follows results filed as active.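 Rule for the calls: active = z-score from 3 up in half or more of its runs; inactive = the rest.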

`CCOC(=O)CC1(NC(=O)N2Cc3ccccc3-n3cccc3C2c2cccs2)CCCCC1` (centres undefined) gave HIV TAR-Tat -0.24.
`CCOC(=O)c1noc2ncnc(N(Cc3ccco3)C3CCN(C)CC3)c12` gave HIV TAR-Tat 0.51.
`COc1cc2c(cc1OC)[C@@H]1C(=O)c3ccc4c(c3O[C@@H]1CO2)C[C@H](C(C)C)O4` gave CDC25B-CDK2 inh -1.5.
CC1N=C(c2ccccc2F)c2cc(Cl)ccc2N(Cc2cc(=O)n3ccccc3n2)C1=O (centres undefined) was read as HIV TAR-Tat 0.15.
CCCCCOc1ccc(C2SCC(=O)Nc3c2c(=O)[nH]n3C(C)C)cc1 (centres undefined) was read as HIV TAR-Tat 1.4 and CDC25B-CDK2 inh -0.5.
Screening COc1ccc(CCNCC2CCCO2)cc1 (centres undefined) returned HIV TAR-Tat 0.36 and CDC25B-CDK2 inh -1.5.
Screening O=C(c1n[nH]c2c1CCCC2)N1CCC2(CC1)OCCO2 returned CDC25B-CDK2 inh -1.1.
CCc1nc(N2CCNCC2)c(C#N)c2c1COC(C)(C)C2 was read as HIV TAR-Tat -0.57 and CDC25B-CDK2 inh -2.2.
`CCc1nn(C(C)C(=O)N2CCC3(CC2)OCCO3)c(=O)c2cc3occc3n12` (centres undefined) gave CDC25B-CDK2 inh -0.38.
Screening Cn1c(=O)n(C)c2cc(CNCCc3ccc(F)cc3)ccc21 returned HIV TAR-Tat -0.67 and CDC25B-CDK2 inh 0.43.
NC(=O)CS(=O)C(c1ccccc1)c1ccccc1 (centres undefined) was read as HIV TAR-Tat 1.1.
`CCCCCCCCCCCCCCCC[N+](C)(C)C` gave HIV TAR-Tat 1.
For C[C@]12CC[C@H](O)C[C@H]1CC[C@@H]1[C@@H]2CC[C@]2(C)[C@H](c3ccc(=O)oc3)CC[C@@]12O the results were HIV TAR-Tat 0.63.
`COC(=O)CN1C(=O)C2(C(C(=O)OC)=C(N)OC3=C2C(=O)CC(C)(C)C3)c2ccccc21` (centres undefined) gave CDC25B-CDK2 inh 0.06.
For CSc1ccc(/C=C/[N+](=O)[O-])cc1 the results were CDC25B-CDK2 inh -1.8.
Screening O=C(N1CCOCC1)C(F)(F)S(=O)(=O)F returned CDC25B-CDK2 inh -0.14.
Screening COc1cccc(-n2c(/C=C/c3ccc([N+](=O)[O-])o3)nc3ccccc3c2=O)c1 returned HIV TAR-Tat -5.4 and CDC25B-CDK2 inh -3.
Screening CCCCOc1ccc(C2SCC(=O)Nc3c2c(C)nn3C2CCOC(C)(C)C2)cc1 (centres undefined) returned HIV TAR-Tat 0.51 and CDC25B-CDK2 inh -0.55.
CC(C)Sc1nnc(OC(=O)N(C)C)n1-c1cccc(C(F)(F)F)c1 was read as CDC25B-CDK2 inh -0.3.
`CCCCOc1ccc(C2C3C(=NN2C(C)=O)C2CCN3CC2)cc1` (centres undefined) gave HIV TAR-Tat -0.39 and CDC25B-CDK2 inh -0.16.
Screening CCC1c2cccn2-c2ccccc2CN1C(=O)NCCCOC (centres undefined) returned HIV TAR-Tat 1.6.
For CCC1(C(=O)c2ccccc2)C2c3cc(Br)ccc3OC(=O)C21C(=O)OC (centres undefined) the results were HIV TAR-Tat 0.86 and CDC25B-CDK2 inh -0.1.
Screening COP(=O)(NC(C)=O)SC (centres undefined) returned HIV TAR-Tat -0.99.
Screening O=C(Cn1ncc2c1-c1ccccc1OC2)N1CCC2(CC1)OCCO2 returned CDC25B-CDK2 inh -2.7.
`CCOC(=O)COc1cc(C)cc2oc(=O)c3c(c12)CCCC3` gave CDC25B-CDK2 inh -1.5.
For Cc1cc(Cl)cc2c1NC(c1cccnc1)C1CC=CC21 (centres undefined) the results were HIV TAR-Tat -0.92 and CDC25B-CDK2 inh 0.73.
`O=C(Cn1cc2c(n1)CCCCC2)N1CCC2(CC1)OCCO2` gave CDC25B-CDK2 inh -1.
For COc1ccc(NC(=O)N2Cc3ccccc3-n3cccc3C2c2cccs2)cc1 (centres undefined) the results were HIV TAR-Tat -0.06.
For Cc1c(C(=O)Nc2ccccc2)cc(-c2ccccc2)n1CCCN1CCOCC1 the results were CDC25B-CDK2 inh -2.
For Cn1c(=O)c2ncnnc2n(C)c1=O the results were CDC25B-CDK2 inh -1.3.
For Cc1cc(C)nc(-n2nc(-c3ccccc3)c3c2NC(=O)CSC3c2ccccc2F)n1 (centres undefined) the results were HIV TAR-Tat -0.82 and CDC25B-CDK2 inh -2.5.
`CC(C)(C)c1cc(O)ccc1O` gave HIV TAR-Tat 2.
Screening Cc1cccc(NC2=NCC(C)S2)c1 (centres undefined) returned CDC25B-CDK2 inh 0.33.
For O=C(Nc1ccc(F)cc1)N1Cc2ccccc2-n2cccc2C1c1ccccc1 (centres undefined) the results were HIV TAR-Tat -0.2.
Screening O=C(NCc1ccco1)N(Cc1ccc2c(c1)OCO2)C1CCN(Cc2ccccc2)CC1 returned HIV TAR-Tat 0.96.
`O=C(c1ccccc1)C1CN2CCC1CC2` (centres undefined) gave HIV TAR-Tat 2.5 and CDC25B-CDK2 inh -2.9.
Screening CCOC(=O)C(=O)NC1CCSC1=O (centres undefined) returned HIV TAR-Tat -0.1 and CDC25B-CDK2 inh -0.88.
Screening O=C1CSC(c2ccc3c(c2)OCO3)c2c(-c3ccccc3)nn(-c3ccccc3)c2N1 (centres undefined) returned CDC25B-CDK2 inh 1.
`Cn1nnc(Nc2nnn(C)n2)n1` gave CDC25B-CDK2 inh -1.3.
For CC(C)[C@@]1(NC(=O)[C@@H]2C[C@@H]3c4cccc5[nH]cc(c45)C[C@H]3N(C)C2)O[C@@]2(O)[C@@H]3CCCN3C(=O)[C@H](Cc3ccccc3)N2C1=O the results were HIV TAR-Tat -1.5.
Screening C=C(C)Cc1c(C)nc(SCC(=O)c2ccc(Cl)cc2)nc1OC(=O)N(C)C returned CDC25B-CDK2 inh -1.3.
`CN1C[C@@H](CO)C=C2c3cccc4[nH]cc(c34)C[C@@H]21` gave HIV TAR-Tat -5.7.
For CC1=C(C(=O)N2CCC3(CC2)OCCO3)C2(CCC(C)CC2)OC1=O (centres undefined) the results were CDC25B-CDK2 inh -1.3.
CCSc1nc2ccccc2c(=O)n1-c1ccccc1 was read as CDC25B-CDK2 inh 0.11.
Screening COc1ccc(CC2c3cc(OC)c(OC)cc3CCN2C)cc1OC (centres undefined) returned HIV TAR-Tat 0.58.
`Cc1cc(OC(=O)N(C)C)nc(COc2ccc(Cl)cc2)n1` gave CDC25B-CDK2 inh -1.8.
For CC(C)=CCCC1(C)C=Cc2c(O)c3c(c(CC=C(C)C)c2O1)OC12C(=CC4CC1C(C)(C)OC2(C/C=C(/C)C(=O)O)C4O)C3=O (centres undefined) the results were HIV TAR-Tat 0.89.
For CCn1cnc2c(Nc3cccc(Cl)c3)nc(N[C@@H]3CCCC[C@@H]3N)nc21 the results were CDC25B-CDK2 inh 1.3.
For COc1cccc(-n2c(=O)[nH]c3cc(OC)c(OC)cc3c2=O)c1 the results were HIV TAR-Tat -2 and CDC25B-CDK2 inh -2.4.
`CCc1c(CN2CCN(C)CC2)csc1C` gave HIV TAR-Tat 1.9.
For O=C1CCN(C(=O)C2CCN(c3ncnc4c3nc3n4CCCCC3)CC2)CC1 the results were HIV TAR-Tat 0.54.
O=C1C=C(Br)C(=O)C=C1Br was read as CDC25B-CDK2 inh -1.8.
Screening C=CCN1CC[C@]23c4c5ccc(O)c4OC2C(=O)CC[C@@]3(O)[C@H]1C5 (some centres undefined) returned HIV TAR-Tat 1.3.
For CNC(=S)NNC(=O)C1(O)CN2CCC1CC2 (centres undefined) the results were CDC25B-CDK2 inh 0.09.
For COc1ccc2nc(NC(=O)Cn3cnc4nc5c(cc4c3=O)CCCC5)sc2c1 the results were HIV TAR-Tat 0.32.
For C/C=C/C(=O)Nc1ccc(N2CCN(C)CC2)cc1 the results were CDC25B-CDK2 inh -1.6.
For Cc1cccc(C2SCC(=O)Nc3n[nH]c(C)c32)c1 (centres undefined) the results were HIV TAR-Tat 0.68 and CDC25B-CDK2 inh -0.96.
`CN(C)C(=O)Oc1ccc2c(=O)c(Oc3ccccc3Br)c(C(F)(F)F)oc2c1` gave HIV TAR-Tat -2.4 and CDC25B-CDK2 inh 0.81.
Screening O=C(c1ccco1)c1cn(Cc2ccc(Cl)cc2)c2ccccc12 returned HIV TAR-Tat 1.2 and CDC25B-CDK2 inh -0.72.
`O=c1c2ccccc2nc(/C=C/c2ccccc2)n1-c1ccccc1` gave CDC25B-CDK2 inh -0.81.

In the list so far, 7 have an aryl methoxy group.
`COc1cc2c(cc1OC)[C@@H]1C(=O)c3ccc4c(c3O[C@@H]1CO2)C[C@H](C(C)C)O4` gave CDC25B-CDK2 inh -1.5.
Screening COc1ccc(CCNCC2CCCO2)cc1 (centres undefined) returned HIV TAR-Tat 0.36 and CDC25B-CDK2 inh -1.5.
Screening COc1cccc(-n2c(/C=C/c3ccc([N+](=O)[O-])o3)nc3ccccc3c2=O)c1 returned HIV TAR-Tat -5.4 and CDC25B-CDK2 inh -3.
For COc1ccc(NC(=O)N2Cc3ccccc3-n3cccc3C2c2cccs2)cc1 (centres undefined) the results were HIV TAR-Tat -0.06.
Screening COc1ccc(CC2c3cc(OC)c(OC)cc3CCN2C)cc1OC (centres undefined) returned HIV TAR-Tat 0.58.
For COc1cccc(-n2c(=O)[nH]c3cc(OC)c(OC)cc3c2=O)c1 the results were HIV TAR-Tat -2 and CDC25B-CDK2 inh -2.4.
For COc1ccc2nc(NC(=O)Cn3cnc4nc5c(cc4c3=O)CCCC5)sc2c1 the results were HIV TAR-Tat 0.32.

Later entries.
Screening Cc1cc(C)nc(-n2nc(-c3ccccc3)c3c2NC(=O)CSC3c2cccc(F)c2)n1 (centres undefined) returned HIV TAR-Tat -0.51 and CDC25B-CDK2 inh 1.9.
Screening CC1c2cccn2-c2ccccc2CN1C(=O)NC1CCCC1 (centres undefined) returned HIV TAR-Tat 0.17.
COc1ccc2nc(N(CCN(C)C)C(=O)COc3ccccc3)sc2c1 was read as HIV TAR-Tat 0.76.
`CCOC(=O)C1C2c3ccccc3O[C@]1(C)N=C1SCC(=O)N12` (some centres undefined) gave CDC25B-CDK2 inh 0.75.
For COc1cc(=O)oc(/C=C/C=C/C=C/C(C)=C/C2(C)OC(C)C(C)(O)C2O)c1C (centres undefined) the results were HIV TAR-Tat 0.87.
`COc1cc(N)c(Cl)cc1C(=O)NC1CN2CCC1CC2` (centres undefined) gave HIV TAR-Tat -0.41.
Screening Fc1ccc(CN2CCN(c3ccc(Cl)cc3)CC2)cc1 returned CDC25B-CDK2 inh -0.33.
CC1C[C@H]2CC(=O)[C@H]3CCCN4CCC[C@H]2[C@]34C1 (some centres undefined) was read as HIV TAR-Tat 1.5.
Screening COc1ccc(CC2CC3CCN2CC3)cc1 (centres undefined) returned HIV TAR-Tat 0.11 and CDC25B-CDK2 inh -2.8.
`C#CC1(OC(=O)c2ccccc2)CC(C)N(C)CC1C` (centres undefined) gave HIV TAR-Tat 0.68 and CDC25B-CDK2 inh -0.47.
Screening Clc1cnc(Oc2ccc(Oc3ncc(Cl)cc3Cl)cc2)c(Cl)c1 returned CDC25B-CDK2 inh -1.4.
For CC1OC1P(=O)(O)O (centres undefined) the results were HIV TAR-Tat 0.6 and CDC25B-CDK2 inh 0.79.
`Cc1sc2ccccc2c1CC1=NCCN1` gave CDC25B-CDK2 inh -2.1.
Screening CCCCc1ccc(C(=O)O)nc1 returned CDC25B-CDK2 inh -0.63.
Cc1sc2ncn(CC(=O)NCCCC(=O)N3CCC4(CC3)OCCO4)c(=O)c2c1C was read as CDC25B-CDK2 inh 0.24.
Screening CCCC[N+]1(C)C2CC(OC(=O)[C@H](CO)c3ccccc3)CC1C1OC12 (some centres undefined) returned CDC25B-CDK2 inh -1.5.
`O=c1c2ccccc2nc(/C=C/c2ccccc2F)n1-c1ccccc1` gave HIV TAR-Tat 0.37 and CDC25B-CDK2 inh -1.
For COC1CC(O[C@H]2CC[C@]3(C=O)C4CC[C@]5(C)C(C6=CC(=O)OC6)CC[C@]5(O)C4CC[C@]3(O)C2)OC(C)C1O (some centres undefined) the results were HIV TAR-Tat 0.79.
`CSc1ccc(C=C(C#N)C#N)s1` gave CDC25B-CDK2 inh -1.6.
Screening Cc1cccn2c(=O)c3cc(C#N)c(=O)n(CCN4CCOCC4)c3nc12 returned HIV TAR-Tat -0.07 and CDC25B-CDK2 inh -0.05.

Reprinted at random: 2 compounds from above, in no set order.
For COC1CC(O[C@H]2CC[C@]3(C=O)C4CC[C@]5(C)C(C6=CC(=O)OC6)CC[C@]5(O)C4CC[C@]3(O)C2)OC(C)C1O (some centres undefined) the results were HIV TAR-Tat 0.79.
For Cc1cc(C)nc(-n2nc(-c3ccccc3)c3c2NC(=O)CSC3c2ccccc2F)n1 (centres undefined) the results were HIV TAR-Tat -0.82 and CDC25B-CDK2 inh -2.5.

Other compounds.
`Cc1nn(-c2nc3ccccc3s2)c2c1C(c1ccc(F)cc1F)SCC(=O)N2` (centres undefined) gave HIV TAR-Tat 1.1 and CDC25B-CDK2 inh -1.4.
Screening COc1ccc(C2(CN)CCCC2)cc1 returned HIV TAR-Tat -0.23 and CDC25B-CDK2 inh -2.9.
For Oc1ccc(CC2CC3CCN2CC3)cc1 (centres undefined) the results were HIV TAR-Tat 3.2 and CDC25B-CDK2 inh -1.2.
`c1ccc2c(c1)OCC(C1=NCCN1)O2` (centres undefined) gave CDC25B-CDK2 inh 0.55.
`NCCc1ccc(O)cc1` gave HIV TAR-Tat 7.2 and CDC25B-CDK2 inh -1.4.
Screening Cn1c(C(=O)N2CCC(C(=O)N3CCC4(CC3)OCCO4)CC2)cc2sccc21 returned CDC25B-CDK2 inh -1.7.
`CCOC(=O)C1CN(C)CCC1=O` (centres undefined) gave HIV TAR-Tat 2.4 and CDC25B-CDK2 inh -0.71.
`CC(=O)N1N=C(c2ccc(C)nc2)OC1c1cccc(Br)c1` (centres undefined) gave HIV TAR-Tat 2.5.
CCS(=O)(=O)Nc1cccc(C(=C2CCCCC2)c2cnc[nH]2)c1 was read as CDC25B-CDK2 inh -1.9.
For COc1cccc(NC(=O)N2Cc3ccccc3-n3cccc3C2c2cccs2)c1 (centres undefined) the results were HIV TAR-Tat 0.27.

This is a subset; the hit share may differ from the screen's.
